Bioassay records deposited in PubChem by National Center for Advancing Translational Sciences (NCATS).
D2 PAM: potentiates the human D2 dopamine receptor allosterically; P14416; DiscoveRx D2 beta-arrestin cells, luminescence, 90 min; 100% = 57 uM dopamine signal; potentiation, % (no concentration beside the values); 360,000 compounds, 0.23% hits; AID 624464; active = potentiation of 50% or more; inconclusive = 30% to 50%; inactive = 30% or less;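 further: compound concentration not given in the record; tested on top of an EC20 dose of dopamine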
Target sequence (P14416 whole entry, looked up): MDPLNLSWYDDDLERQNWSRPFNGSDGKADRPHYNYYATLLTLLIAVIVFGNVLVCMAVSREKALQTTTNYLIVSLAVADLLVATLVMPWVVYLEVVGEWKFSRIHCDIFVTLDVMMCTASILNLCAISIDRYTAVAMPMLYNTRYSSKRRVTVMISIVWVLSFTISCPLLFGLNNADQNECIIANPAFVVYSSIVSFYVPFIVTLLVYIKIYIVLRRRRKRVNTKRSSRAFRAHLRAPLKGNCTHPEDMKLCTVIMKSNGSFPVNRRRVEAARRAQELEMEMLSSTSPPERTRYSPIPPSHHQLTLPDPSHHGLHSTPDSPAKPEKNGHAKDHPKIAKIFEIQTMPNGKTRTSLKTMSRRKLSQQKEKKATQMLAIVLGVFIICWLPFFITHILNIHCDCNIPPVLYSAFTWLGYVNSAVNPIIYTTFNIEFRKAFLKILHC
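PathHunter D2 cells, attached overnight at 37 deg C, received compound in DMSO plus dopamine at EC20 (50 nM final) for 90 min at 37 deg C. Beta-arrestin recruitment was read as luminescence after 1 h with detection reagent at ambient temperature.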
TRPML1 ag: activates the human TRPML1 channel; Q9GZU1; TRPML1-expressing cells, Ca2+ dye fluorescence, FDSS; host cell line not named in the record; reference of the full effect not given here; activation, % (test concentration not listed); 410,000 compounds, 0.12% hits; AID 624414; in the data active = activation above about 50%; inconclusive = about 30% to 50%; inactive = below about 30%; further: 0% is about no effect; the text of the record puts the active cut at 80%
Target sequence (Q9GZU1 whole entry, looked up): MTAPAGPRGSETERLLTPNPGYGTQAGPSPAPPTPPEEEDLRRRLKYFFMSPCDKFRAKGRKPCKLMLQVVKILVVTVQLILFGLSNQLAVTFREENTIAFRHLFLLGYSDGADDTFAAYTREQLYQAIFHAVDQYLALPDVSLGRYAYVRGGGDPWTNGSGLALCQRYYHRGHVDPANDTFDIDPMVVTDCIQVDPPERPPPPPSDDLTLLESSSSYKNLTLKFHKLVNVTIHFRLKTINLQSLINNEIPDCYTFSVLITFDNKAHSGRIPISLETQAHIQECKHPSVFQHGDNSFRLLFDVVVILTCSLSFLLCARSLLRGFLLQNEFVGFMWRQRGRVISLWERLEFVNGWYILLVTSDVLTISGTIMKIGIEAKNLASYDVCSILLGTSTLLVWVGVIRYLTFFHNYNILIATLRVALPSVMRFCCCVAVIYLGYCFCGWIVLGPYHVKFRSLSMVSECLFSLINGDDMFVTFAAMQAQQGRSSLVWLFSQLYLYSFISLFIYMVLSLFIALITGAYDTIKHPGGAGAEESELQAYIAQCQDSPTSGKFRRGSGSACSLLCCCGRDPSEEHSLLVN
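Calcium fluorescence on an FDSS kinetic reader gave the read-out. Tet-induced TRPML1-DL cells were plated overnight, dye-loaded (Ca8 with quencher, 45-90 min, room temperature, dark), then read 110 s after compound addition, and again 110 s after 4uM final 54-4 (EC80).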
CtBP-E1A blk: CtBP/E1A binding inhibition; AlphaScreen GST-E1A/His-CtBP binding, 1536-well; stronger effect = lower value; control for the full effect not named in the record; activity change, % (test concentration not listed); 340,000 compounds, 0.49% hits; AID 651724; in the data active means activity change below about -65%; inconclusive means about -30% to -65%; inactive means above about -30%; further: on the % scale 0 is the no-effect control and ±100 the full control effect
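Homogeneous bead-based format: GST-tagged E1A captured on glutathione donor beads, His-tagged CtBP on nickel acceptor beads; compounds precede bead addition by 2 h at 37 °C.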
TRPV1 PAM: potentiators of human vanilloid receptor 1 (TRPV1) | Q8NER1 | TRPV1-expressing cells, Fluo-8 calcium influx, capsaicin EC20 potentiation; host cell line not named in the record; control for the full effect not named in the record | potentiation, % at 8.33 µM | 320,000 compounds, 0.02% hits; active means potentiation above 80%; inconclusive means 30% to 80%; inactive means below 30%; further: 0% is about no effect
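Fluo-8 calcium influx in TRPV1-expressing cells, kinetic read (ex 480/em 520 nm). Compound added and read 3 min for agonist activity, followed by capsaicin at EC20 final and 2 min further read for enhancement.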
Six1-Eya2 blk: blocks human Six1 binding to Eya2; activity change, % (test concentration not listed); Q15475+O00167; AlphaScreen GST-Six1/His-Eya2 binding, biochemical; stronger effect = lower value; control for the full effect not named in the record; 360,000 compounds, 0.56% hits; in the data active = activity change below about -65%; inconclusive = about -30% to -65%; inactive = above about -30%; further: on the % scale 0 is the no-effect control and ±100 the full control effect
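GST-Six1 + His-Eya2 (5X stock: 250/500 nM); Tris pH 8.0, 300 mM NaCl, 0.05% BSA, 0.02% Tween 20; GSH donor/Ni acceptor beads; 1 h 37 °C dark; AlphaScreen readout.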
TRPML1 inh: blocks the human TRPML1 channel; Q9GZU1; TRPML1-inducible cells, Ca2+ dye fluorescence, FDSS; stronger effect = lower value; inhibition of EC80 agonist-evoked calcium signal; activity change, negative = inhibition, % (no concentration beside the values); 390,000 compounds, 0.02% hits; AID 624415; in the data active means activity change below about -50%; inconclusive means about -30% to -50%; inactive means above about -30%;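 further: stimulus is agonist 54-4 at its EC80 concentration; on the % scale 0 is the no-effect control and ±100 the full control effect; compound concentration not given in the record; the text of the record puts the active cut at -80%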
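Tet-induced TRPML1-DL cells loaded with Ca8 no-wash calcium dye were read kinetically on FDSS. Compound addition was followed by EC80 agonist 54-4 (4 uM final); inhibition was read over 110 s.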
An asterisk follows results filed as active; ? = inconclusive; · = no result given; & = joins results of further samples.

SMILES	D2 PAM	TRPML1 ag	CtBP-E1A blk	TRPV1 PAM	Six1-Eya2 blk	TRPML1 inh
O=C(OCC(O)CN1CCCCC1)C12CC3CC(CC(C3)C1)C2 (stereo unspecified)	1	-0.1	1	0	4	1
CCn1c(-c2csc3c2CCC(C)C3)n[nH]c1=S (stereo unspecified)	-11	1.8	-2	19	-10	2
CSc1cccc(NC(=S)N(Cc2ccccc2)Cc2ccccn2)c1	-1	0.8	4	6	-13	43
CCN(C[C@H]1N[C@@](CC)(C(=O)OC)[C@H]2C(=O)N(Cc3ccccc3)C(=O)[C@@H]12)S(=O)(=O)c1ccccc1	0	-1.1	2	·	5	9
C#CCN1C(=O)S/C(=C\c2ccc(N3CCOCC3)cc2C)C1=O	-7	3.8	2	3	8	28
O=C(CSc1nnc(NC(=O)C2CC(=O)N(c3ccc(F)cc3)C2)s1)NC1CCCC1 (stereo unspecified)	20	-0.4	6	2	-10	15
CCOc1ccc(NC(=O)NCc2cccn2C)cc1	-4	0.0	0	-5	-7	3
CCOC(=O)CCc1c(C(=O)OCC)[nH]c(CC)c1C(=O)OCc1ccccc1	1	0.7	-1	-19	-9	12
CC1CN(C(=O)CSc2nc(N)cc(N)n2)CC(C)O1 (stereo unspecified)	2	-0.6	·	5	-3	0
O=C(CN(C(=O)c1csnn1)c1ccc(Cl)cc1)NC1CCCC1	-10	0.4	5	0	7	-12
Cc1ccc(S(=O)(=O)/C=C2\NC(=O)CS2)cc1	4	-0.5	-2	-4	-6	-10
CCOC(=O)COc1ccc(S(=O)(=O)Nc2ccc3c(c2)OCCO3)cc1	-1	1.0	8	7	-1	0
CSc1ccc(CNC(=O)C2CCC(=O)N(CCc3cccc(F)c3)C2)cc1 (stereo unspecified)	-2	-0.6	-1	-3	-1	-5
CCc1ccc(S(=O)(=O)NCC(O)COc2ccc(OC)cc2)cc1 (stereo unspecified)	-10	1.2	2	?	-12	10
COc1ccc(NC(=O)c2ccc(NC(=O)CN3CCN(c4ccccc4OC)CC3)cc2)cc1	-25	-0.2	-6	·	-6	18
O=C1CN(C(=O)c2ccccc2Br)C(c2ccc(F)cc2)c2cc(F)ccc2N1 (stereo unspecified)	-4	2.3	·	-1	1	-14
COc1ccc(OC)c(C(C)NC=O)c1 (stereo unspecified)	-3	0.5	8	-5	9	-4
COc1ccccc1C(=O)Nc1nnc([C@H]2C[C@H](O)[C@@H](CO)O2)s1	-9	-0.3	-11	·	-2	·
CC(C)CCOP(=O)(c1ccc(N(C)C)cc1)C(O)c1ccc(Cl)cc1Cl (stereo unspecified)	-7	3.5	-4	11	-14	-4
CN1CCN(c2ncnc3c2ncn3[C@H]2CN(Cc3ccc(Cl)cc3)C[C@@H](CO)O2)CC1	-5	0.0	6	·	3	·
O=C(NCc1cccc(F)c1)C1CCC(=O)N(CC2CCCCC2)C1 (stereo unspecified)	10	-0.1	-1	-12	6	-24
COc1ccc(CC(=O)Nc2ccc(/C(C)=N/NC(=O)c3cccc([N+](=O)[O-])c3)cc2)cc1	-6	-0.5	0	-10	7	-12
CC(=O)Nc1ccc(OCC(O)Cn2c3ccccc3c3ccccc32)cc1 (stereo unspecified)	11	1.2	5	11	-2	5
CCCn1c(O)c(N=NC(=O)c2cccnc2)c2cc(Br)ccc21	-4	0.7	6	-1	1	14
CCOc1cc(-c2noc(CCCC(N)=O)n2)cc(Br)c1OC	14	-0.1	2	-20	-1	-12
CCOC(=O)[C@@H]1[C@H]2COc3ccccc3[C@@H]2N2C(=O)N(c3cccc(F)c3)C(=O)[C@]12C	-6	0.1	0	·	6	17
CC1(NC(=O)N2CCCCC2)CCS(=O)(=O)C1 (stereo unspecified)	-10	-0.6	-2	-2	2	-2
CN(C)C(CNC(=O)c1cccc(C#N)c1)c1ccco1 (stereo unspecified)	-5	-0.3	7	16	0	10
C#CCn1c(O)c(N=NC(=O)CNC(=O)/C=C/c2ccccc2)c2ccccc21	-23	-1.1	-1	1	?	-6
CCOC(=O)N1CCN(S(=O)(=O)c2ccc(OC)c(C(=O)N3CCCCC3)c2)CC1	-15	-0.5	22	-2	15	10
O=C(CN(Cc1ccc(Br)cc1)S(=O)(=O)c1ccccc1)NCc1ccncc1	1	0.0	-3	-20	7	22
COc1cccc(-c2csc3nnc(SCC(=O)c4ccc(NC(C)=O)cc4)n23)c1	4	3.9	-1	-1	-1	4
COc1ccc(Cc2nnc(SCC(=O)Nc3ccc(C)c(Cl)c3)[nH]c2=O)cc1	2	0.7	-20	?	7	-1
CCOc1ccc2[nH]c(=O)c(CN(CCO)C(=O)CC)cc2c1	-5	0.1	11	-8	5	4
Cc1cccc(COc2ccc(/C=N/NC(=O)c3nnn(-c4nonc4N)c3CN3CCCCC3)cc2)c1	-6	1.0	·	2	2	-10
O=C1NC[C@H](CCCCN2C[C@H](Cc3ccccc3)N(CCC3CCCCC3)C(=O)C2=O)N(Cc2ccccc2)C1=O	·	-0.9	-3	·	0	·
O=C(CSc1nnc(-c2ccccc2)n1Cc1ccccc1)N1CCOCC1	8	-0.4	4	5	-3	12
Cc1cc2sc3nc(=O)n(-c4ccccc4)c(=O)n3c2cc1C	-9	-0.2	5	3	6	-11
CC1CC(C)CN(C(=O)C2CCCN(c3ncnc4c3nc3n4CCCCC3)C2)C1 (stereo unspecified)	-1	-0.4	-1	6	-8	-2
CC(CC(=O)Nc1ccc(F)cc1F)S(=O)(=O)c1ccc2c(c1)NC(=O)CO2 (stereo unspecified)	-7	-0.7	1	4	0	26
CN(Cc1ccc(Cl)cc1)C(=O)COC(=O)c1ccc(-c2ccc(O)cc2)cc1	-4	0.0	1	-32	5	-10
O=C(CSc1nc2ccccc2o1)NCC1CCCO1 (stereo unspecified)	-9	-0.3	5	6	2	-3
OC1(C#CCN2CCOCC2)CCCCC1	-10	0.7	·	6	12	-5
COc1ccc(CN2CCOCCOCCOCCOCCOCC2)cc1	-4	-0.2	5	·	-1	4
COc1ccc(NC(=O)Cc2nc3ccccc3[nH]2)cc1	0	-1.2	6	3	-2	1

7 structures from above, ordered by heavy-atom count, falling.
SMILES	D2 PAM	TRPML1 ag	CtBP-E1A blk	TRPV1 PAM	Six1-Eya2 blk	TRPML1 inh
O=C1NC[C@H](CCCCN2C[C@H](Cc3ccccc3)N(CCC3CCCCC3)C(=O)C2=O)N(Cc2ccccc2)C1=O	·	-0.9	-3	·	0	·
Cc1cccc(COc2ccc(/C=N/NC(=O)c3nnn(-c4nonc4N)c3CN3CCCCC3)cc2)c1	-6	1.0	·	2	2	-10
CN(Cc1ccc(Cl)cc1)C(=O)COC(=O)c1ccc(-c2ccc(O)cc2)cc1	-4	0.0	1	-32	5	-10
O=C(CSc1nnc(-c2ccccc2)n1Cc1ccccc1)N1CCOCC1	8	-0.4	4	5	-3	12
COc1ccc(CN2CCOCCOCCOCCOCCOCC2)cc1	-4	-0.2	5	·	-1	4
COc1ccc(NC(=O)Cc2nc3ccccc3[nH]2)cc1	0	-1.2	6	3	-2	1
OC1(C#CCN2CCOCC2)CCCCC1	-10	0.7	·	6	12	-5

(list continues)
SMILES	D2 PAM	TRPML1 ag	CtBP-E1A blk	TRPV1 PAM	Six1-Eya2 blk	TRPML1 inh
Clc1ccc(CNC2CCCC2)c(Cl)c1	-26	-0.1	10	0	4	-5
NC(=S)Nc1c(Cl)cccc1Cl	-17	-0.4	·	-6	5	-8
COC(=O)CSc1nnc2n1C(C)(C)Cc1ccccc1-2	-11	-0.4	5	-8	6	0
O=c1cc(CN2CCN(c3ccccc3F)CC2)c2ccccc2o1	-3	-0.4	2	·	2	·
COc1ccc(-c2nc(NCCCN(C)C)c3ccccc3n2)cc1	-39	·	·	-2	11	·
CCOC(=O)c1ccc(NS(=O)(=O)c2ccc3c(c2)n(C)c(=O)n3C)cc1	-2	-0.1&0.0	·	?	-10	11&-12
Cc1ccccc1N1CC(=O)N(c2ccccc2C)CC1=O	-7	1.9	-7	19	1	-14
O=C(O)c1cnn(-c2nc(-c3cccc(F)c3)cs2)c1C(F)(F)F	-7	-0.2	·	-8	2	-2
CCCCC(=O)Nc1ccccc1C(=O)N1CCOCC1	-18	-0.1	-10	-9	-1	1
N#CCn1cnc2sc(-c3ccccc3)cc2c1=O	-3	-0.7	-29	8	-5	3
COc1ccc(-c2cc3c(o2)CCCC3OCCN2CCOCC2)cc1 (stereo unspecified)	·	-0.7	-2	·	-16	·
CCN(CC)CCCN(Cc1cc2cc(OC)ccc2[nH]c1=O)C(=O)Nc1ccccc1	-7	1.0	0	3	3	12
O=C(CN1C(=O)C2C3C=CC(C3)C2C1=O)Nc1ccc(F)cc1 (stereo unspecified)	-6	0.2	-16	-4	4	10
CCSc1nnc(NC(=O)c2cccc3ccccc23)s1	-5	-0.1	9	18	3	-6
C[C@H](CO)N1C[C@H](C)[C@@H](CN(C)S(=O)(=O)c2ccccc2)Oc2c(NC(=O)C3CCCCC3)cccc2C1=O	-2	0.2	1	·	-2	27
O=C(NCC1CCCO1)C(C(=O)c1ccccc1)n1cc(Cl)ccc1=O (stereo unspecified)	3	-0.6	5	9	-2	2
CC(C)OCCCNS(=O)(=O)c1ccc2ccccc2c1	4	0.7	1	-10	0	-6
O=C(CN1CCN(Cc2ccccc2)C1=O)NCCCN1CCOCC1	-8	-0.8	1	1	7	10
COc1ccc(CNC(=O)/C(C)=C\C(=O)O)cc1	-8	3.5	4	-45	-1	35
Cc1cccc(-n2c(CCc3ccccc3)nnc2SCC(=O)c2ccccc2)c1	-26	1.5	11	5	-7	8
CN(C)CCn1cnc2c1c(=O)[nH]c(=O)n2Cc1ccccc1	-3	-1.2	9	6	1	7
CCCn1c(N)c(N(CCOC)C(=O)CSc2cc(C)c3cccc(C)c3n2)c(=O)[nH]c1=O	-3	-0.5	4	10	6	-15
O=C(CCCn1c(SCc2ccccc2F)nc2ccccc2c1=O)NCC1CCCO1 (stereo unspecified)	1	0.1	2	-11	-4	8
CCN(CC)C(=O)Cn1cc(S(=O)(=O)CC(=O)N2CC(C)OC(C)C2)c2ccccc21 (stereo unspecified)	-4	-0.5	-5	·	0	0
COc1ccc(CCN2C(=NC(=O)CCC(=O)O)SC3CS(=O)(=O)CC32)cc1OC (stereo unspecified)	-6	-0.4	3	0	4	1
N#CCCN1CCN(S(=O)(=O)c2ccc(S(=O)(=O)NCC3CCCO3)cc2)CC1 (stereo unspecified)	-6	0.9	-10	6	-4	?
Cc1ccc(OCC(=O)N2CCC(Cc3ccccc3)CC2)c([N+](=O)[O-])n1	-2	-0.8	·	1	-8	-12
CCCN1CCN(C(=O)c2ccc3[nH]c(C)c(C)c3c2)CC1	-24	0.0	2	·	-2	7
O=C(COC(=O)CCN=C1NS(=O)(=O)c2ccccc21)NNC(=O)c1ccccc1	-24	0.0	3	-18	2	12
Cc1cc(Nc2ncc(Cl)cc2Cl)n[nH]1	-5	-0.2	-3	9	-3	9
O=C(CN1C(=O)NC2(CCCCCC2)C1=O)NCc1ccccc1	0	-0.4	6	·	5	7
COc1ccc(NC(=O)CN(C)C(=O)CN2C(=O)C3CCCCC3C2=O)cc1 (stereo unspecified)	-3	-0.9	4	2	4	-4
